Bioassay records: PubChem, Broad Institute
UUG fidelity – modulators of start codon recognition fidelity in yeast; S. cerevisiae UUG-firefly luciferase reporter, luminescence/redox ratio; AID 602363; 0.13% of 350,000 active; activity score, % at 18.7 µM;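 active = replicate mean at a twofold rise or more, about +100% in these data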;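 also: firefly luciferase made from a UUG start codon reports start codon fidelity; reporter light over untreated wells divided by growth signal over untreated wells; some hits fall short of that in this replicate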
Env fusion inh – blocks HIV Env-driven cell-cell fusion | HeLa-JRFL Env/CEM21 cell fusion, luciferase | inhibition, % at 12.3 µM | 1.1% of 360,000 active | AID 651610;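 active = mean replicate inhibition score of at least 50 and every replicate individually at or above 50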;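 also: 0% = plate neutral controls and 100% = maraviroc near 300 nM; one replicate is shown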
The depositor's hits bear a star; [ ] = another dose, or the depositor's remark.

UUG fidelity	Env fusion inh	molecule
-9	12[16.7 µM]	CC(C)CC#Cc1ccc2c(c1)O[C@H](CN(C)C(=O)c1ccccc1)[C@@H](C)CN([C@@H](C)CO)S2(=O)=O
1	-6[16.7 µM]	CCC(=O)Nc1ccc2c(c1)C(=O)N(C)[C@@H]1CC[C@@H](CC(=O)NCc3ccc(OC)cc3)O[C@H]1CO2
-6	11[16.7 µM]	C[C@@H]1CN([C@H](C)CO)S(=O)(=O)c2ccc(-c3ccccc3F)cc2O[C@H]1CN(C)Cc1ccncc1
5	7[16.7 µM]	O=C(C[C@@H]1C=C[C@H](NS(=O)(=O)c2ccc(F)cc2)[C@@H](CO)O1)N1CCN(c2ccccc2)CC1
-13	-8[16.7 µM]	C[C@@H]1CN([C@@H](C)CO)C(=O)Cc2cc(NS(=O)(=O)c3cn(C)cn3)ccc2O[C@H]1CN(C)C(=O)Nc1ccc2c(c1)OCO2
0	10[16.7 µM]	CCC(=O)N(C)C[C@H]1Oc2ncc(C#Cc3ccccc3)cc2C(=O)N([C@H](C)CO)C[C@@H]1C
4	13[16.7 µM]	Cc1ccccc1-c1cnc2c(c1)C(=O)N([C@@H](C)CO)C[C@@H](C)[C@@H](CN(C)CC1CC1)O2
0	14[16.7 µM]	Cc1ccc(S(=O)(=O)N[C@H]2CC[C@@H](CCn3cc(C4CCCC4)nn3)O[C@@H]2CO)cc1
-2	-8[16.7 µM]	CN(C)CC(=O)N[C@H]1CC[C@@H](CC(=O)NCc2ccc(Cl)cc2)O[C@@H]1CO
155*	-28[16.7 µM]	COc1cccc(-c2cn(CC[C@@H]3CC[C@H](NC(=O)CC4CC4)[C@@H](CO)O3)nn2)c1
5	3[16.7 µM]	C[C@@H](NC(=O)C[C@@H]1C[C@H]2c3cc(NC(=O)CN(C)C)ccc3O[C@H]2[C@@H](CO)O1)c1ccccc1
11	3[16.7 µM]	Cc1noc(C)c1NC(=O)Nc1ccc2c(c1)C(=O)N([C@H](C)CO)C[C@H](C)[C@H](CN(C)C(=O)Nc1ccccc1)OCCCC[C@@H](C)O2
20	-5[16.7 µM]	C[C@H]1CCCCO[C@H](CN(C)Cc2ccc3c(c2)OCO3)[C@@H](C)CN([C@@H](C)CO)C(=O)c2cc(NC(=O)C3CCCCC3)ccc2O1
4	1[16.7 µM]	Cc1noc(C)c1NC(=O)N(C)C[C@@H]1OCCCC[C@H](C)Oc2ccc(NS(=O)(=O)c3cccs3)cc2C(=O)N([C@@H](C)CO)C[C@H]1C
-2	-22[16.7 µM]	COc1ccc(NC(=O)N(C)C[C@@H]2OCCCC[C@@H](C)Oc3ccc(NS(=O)(=O)c4ccc(C)cc4)cc3C(=O)N([C@@H](C)CO)C[C@@H]2C)cc1
3	-4[16.7 µM]	CC(C)NC(=O)N(C)C[C@@H]1Oc2ncc(C#CC3CCCC3)cc2C(=O)N([C@H](C)CO)C[C@H]1C
-3	82*[16.7 µM]	C[C@H]1CCCCO[C@@H](CN(C)Cc2ccc(C(F)(F)F)cc2)[C@@H](C)CN([C@@H](C)CO)C(=O)c2cc(NC(=O)Nc3ccc(C(F)(F)F)cc3)ccc2O1
18	-45[16.7 µM]	COc1ccc(S(=O)(=O)Nc2cccc3c2O[C@@H](CN(C)Cc2ccc(Cl)c(Cl)c2)[C@H](C)CN([C@H](C)CO)C3=O)cc1
1	-10[16.7 µM]	C[C@@H]1CN([C@H](C)CO)S(=O)(=O)c2ccc(-c3cccc(C#N)c3)cc2O[C@H]1CN(C)C(=O)c1ccncc1
-16	2[16.7 µM]	C[C@H]1CN([C@@H](C)CO)S(=O)(=O)c2ccc(-c3ccccc3)cc2O[C@H]1CN(C)C(=O)Nc1ccccc1F
-10	6[16.7 µM]	CCCN(C)C[C@@H]1OCCCC[C@@H](C)Oc2ccc(NC(=O)Nc3cccc4ccccc34)cc2C(=O)N([C@H](C)CO)C[C@@H]1C
-5	17[16.7 µM]	O=C(C[C@@H]1C[C@H]2c3cc(NC(=O)Nc4ccc(C(F)(F)F)cc4)ccc3O[C@H]2[C@H](CO)O1)NCc1ccc2c(c1)OCO2
12	-17[16.7 µM]	Cc1ccc(S(=O)(=O)Nc2ccc3c(c2)C(=O)N([C@H](C)CO)C[C@H](C)[C@@H](CN(C)Cc2ccncc2)OCCCC[C@H](C)O3)cc1
-6	-11[16.7 µM]	O=C(C[C@@H]1C=C[C@@H](NC(=O)C2CC2)[C@H](CO)O1)NCc1ccncc1
4	-6[16.7 µM]	C[C@H]1CN([C@@H](C)CO)C(=O)c2cccc(NC(=O)c3cnccn3)c2O[C@@H]1CN(C)Cc1ccc(C(=O)O)cc1
6	47[16.7 µM]	CN1C(=O)c2cc(NC(=O)c3ccc(F)cc3)ccc2OC[C@@H]2O[C@H](CC(=O)NCC3CCCCC3)CC[C@@H]21
7	4[16.7 µM]	C[C@@H]1CN([C@@H](C)CO)C(=O)Cc2cc(NC(=O)CCC(F)(F)F)ccc2O[C@@H]1CN(C)Cc1ccc2c(c1)OCO2
-8	37[16.7 µM]	C[C@H]1CN([C@@H](C)CO)C(=O)c2cc(-c3cccc(F)c3)cnc2O[C@H]1CN(C)Cc1cccc(F)c1
3	21[16.7 µM]	COc1cccc(C#Cc2cnc3c(c2)C(=O)N([C@@H](C)CO)C[C@@H](C)[C@H](CN(C)C(=O)C2CCCCC2)O3)c1
-10	-99[16.7 µM]	CCCc1cn(CC[C@H]2CC[C@H](NC(=O)C3CCOCC3)[C@@H](CO)O2)nn1
-6	9[16.7 µM]	C[C@H]1CCCCO[C@@H](CN(C)C(=O)Cc2ccccc2)[C@@H](C)CN([C@@H](C)CO)C(=O)c2cc(NS(=O)(=O)c3ccc(F)cc3)ccc2O1
-7	-6[16.7 µM]	CO[C@@H]1CN(C)C(=O)c2ccc(NS(C)(=O)=O)cc2OC[C@@H](C)N(Cc2cncnc2)C[C@@H]1C
-2	-1[16.7 µM]	C[C@@H]1CN([C@H](C)CO)C(=O)c2cc(NC(=O)C3CC3)ccc2O[C@@H]1CN(C)Cc1ccc2c(c1)OCO2
10	-13[16.7 µM]	C[C@H]1CN([C@@H](C)CO)S(=O)(=O)c2ccc(C#CCN(C)C)cc2O[C@H]1CN(C)C(=O)c1ccccc1F
2	-21[16.7 µM]	O=C(C[C@@H]1CC[C@H](NS(=O)(=O)c2ccc(F)cc2)[C@@H](CO)O1)NCc1ccncn1
-15	-7[16.7 µM]	C[C@@H]1CN([C@@H](C)CO)C(=O)Cc2cc(NS(C)(=O)=O)ccc2O[C@H]1CN(C)Cc1ccncc1
3	8[16.7 µM]	CO[C@H]1CN(C)C(=O)c2cc(NS(=O)(=O)CC(F)(F)F)ccc2OC[C@@H](C)N(CCC(F)(F)F)C[C@H]1C
-8	-25[16.7 µM]	O=C(C[C@@H]1CC[C@@H](NC(=O)C2CC2)[C@H](CO)O1)NCc1ccncc1
-15	-3[16.7 µM]	O=C(Nc1ccccc1)N[C@@H]1CC[C@@H](CCNS(=O)(=O)c2ccccc2F)O[C@H]1CO
32	15[16.7 µM]	O=C(NCC[C@H]1CC[C@H](NS(=O)(=O)c2ccc(Oc3ccccc3)cc2)[C@@H](CO)O1)C1CC1
-3	-11[16.7 µM]	C[C@@H]1CN([C@H](C)CO)C(=O)c2cc(NC(=O)Nc3ccc4c(c3)OCO4)ccc2O[C@@H]1CN(C)S(=O)(=O)c1ccccc1
24	-9[16.7 µM]	C[C@H](CO)N1C[C@H](C)[C@@H](CN(C)Cc2cccc(F)c2)Oc2ncc(C#C[C@@H](C)O)cc2C1=O
4	11[16.7 µM]	COc1ccc(S(=O)(=O)N(C)C[C@@H]2Oc3ccc(NS(C)(=O)=O)cc3CC(=O)N([C@H](C)CO)C[C@H]2C)cc1
16	20[16.7 µM]	C[C@H]1CCCCO[C@H](CN(C)C(=O)CCCN(C)C)[C@@H](C)CN([C@@H](C)CO)C(=O)c2cc(NC(=O)Nc3ccc(F)cc3)ccc2O1
15	6[16.7 µM]	COc1ccc(NC(=O)N(C)C[C@@H]2Oc3ncc(C#CC(C)C)cc3C(=O)N([C@@H](C)CO)C[C@H]2C)cc1
-8	2[16.7 µM]	C/C=C/c1ccc2c(c1)O[C@H](CN(C)C(=O)CN(C)C)[C@H](C)CN([C@@H](C)CO)S2(=O)=O
20	23[16.7 µM]	C[C@H](CO)N1C[C@H](C)[C@H](CN(C)C(=O)Nc2ccc3c(c2)OCO3)Oc2ncc(-c3ccc(F)cc3)cc2C1=O
-6	28[16.7 µM]	C[C@H]1CCCCO[C@H](CN(C)C(=O)Nc2ccc(F)cc2)[C@@H](C)CN([C@@H](C)CO)C(=O)c2cc(NC(=O)NC3CCCCC3)ccc2O1
9	0[16.7 µM]	COCC(=O)N(C)C[C@@H]1Oc2ncc(-c3ccccc3C)cc2C(=O)N([C@H](C)CO)C[C@@H]1C
-7	8[16.7 µM]	CCNC(=O)C[C@@H]1CC[C@H](NC(=O)NC2CCCCC2)[C@@H](CO)O1

UUG fidelity: hit marks shown above
UUG fidelity	Env fusion inh	molecule
155*	-28[16.7 µM]	COc1cccc(-c2cn(CC[C@@H]3CC[C@H](NC(=O)CC4CC4)[C@@H](CO)O3)nn2)c1

The list goes on.
UUG fidelity	Env fusion inh	molecule
1	-6[16.7 µM]	C[C@H]1CN([C@@H](C)CO)C(=O)c2cccc(NC(=O)c3cnccn3)c2O[C@H]1CN(C)C(=O)Nc1cccc2ccccc12
2	-13[16.7 µM]	CC(C)NC(=O)Nc1ccc2c(c1)C(=O)N([C@H](C)CO)C[C@@H](C)[C@H](CN(C)S(=O)(=O)c1cccs1)OCCCC[C@H](C)O2
6	-6[16.7 µM]	C[C@H]1CN([C@@H](C)CO)C(=O)Cc2cc(NC(=O)CCC(F)(F)F)ccc2O[C@H]1CN(C)C(=O)Nc1cccc2ccccc12
-5	-6[16.7 µM]	CC(C)NC(=O)N(C)C[C@H]1Oc2ccc(NC(=O)Cn3cnnn3)cc2CC(=O)N([C@@H](C)CO)C[C@H]1C
3	-3[16.7 µM]	C[C@@H]1CN([C@H](C)CO)C(=O)c2cc(-c3ccc(F)cc3)cnc2O[C@@H]1CN(C)S(C)(=O)=O
16	-8[16.7 µM]	COc1ccc(S(=O)(=O)Nc2ccc3c(c2)C(=O)N([C@H](C)CO)C[C@H](C)[C@@H](CN(C)Cc2ccc(C(=O)O)cc2)OCCCC[C@@H](C)O3)cc1
-8	14[16.7 µM]	C[C@H](O)C#Cc1ccc2c(c1)O[C@@H](CN(C)CC1CCOCC1)[C@@H](C)CN([C@@H](C)CO)S2(=O)=O
3	35[16.7 µM]	Cc1ccc(S(=O)(=O)N(C)C[C@H]2OCCCC[C@@H](C)Oc3ccc(NS(=O)(=O)c4cccs4)cc3C(=O)N([C@H](C)CO)C[C@H]2C)cc1
1	-4[16.7 µM]	C=CCN1C(=O)[C@@]2(O[C@@H](CCO)[C@H]([Si](C)(C)c3ccc(OC)cc3)[C@H]2C)c2cc(N3CCCCC3=O)ccc21
-18	-144[16.7 µM]	C[C@H](O)C#Cc1ccc2c(c1)O[C@@H](CN(C)C)[C@H](C)CN([C@@H](C)CO)S2(=O)=O
-6	3[16.7 µM]	CCC(=O)Nc1ccc2c(c1)C(=O)N(C)[C@H]1CC[C@H](CC(=O)NCC3CC3)O[C@@H]1CO2
-12	-20[16.7 µM]	O=C(C[C@H]1C=C[C@@H](NC(=O)c2ccc3c(c2)OCO3)[C@H](CO)O1)NCc1ccc(Cl)cc1
8	-20[16.7 µM]	C[C@@H]1CN([C@@H](C)CO)C(=O)c2cc(NC(=O)Cc3cn(C)c4ccccc34)ccc2O[C@@H]1CN(C)Cc1ccccc1
5	1[16.7 µM]	Cc1ccccc1-c1cnc2c(c1)C(=O)N([C@@H](C)CO)C[C@H](C)[C@@H](CN(C)Cc1ccccc1F)O2
-19	-10[16.7 µM]	COc1cccc(NC(=O)N[C@H]2CC[C@@H](CC(=O)Nc3ccc(-c4ccccc4)cc3)O[C@@H]2CO)c1
2	16[16.7 µM]	C[C@@H]1CCCCO[C@@H](CN(C)S(=O)(=O)c2cccs2)[C@H](C)CN([C@@H](C)CO)C(=O)c2cc(NS(C)(=O)=O)ccc2O1

Entries of single compounds, looked up by structure:
CC(C)NC(=O)N(C)C[C@@H]1Oc2ncc(C#CC3CCCC3)cc2C(=O)N([C@H](C)CO)C[C@H]1C as listed: UUG fidelity: 3; Env fusion inh: -4[16.7 µM]
COc1ccc(S(=O)(=O)Nc2cccc3c2O[C@@H](CN(C)Cc2ccc(Cl)c(Cl)c2)[C@H](C)CN([C@H](C)CO)C3=O)cc1 as listed: UUG fidelity: 18; Env fusion inh: -45[16.7 µM]

Reprinted from the listing (2 entries):
UUG fidelity	Env fusion inh	molecule
10	-13[16.7 µM]	C[C@H]1CN([C@@H](C)CO)S(=O)(=O)c2ccc(C#CCN(C)C)cc2O[C@H]1CN(C)C(=O)c1ccccc1F
2	-21[16.7 µM]	O=C(C[C@@H]1CC[C@H](NS(=O)(=O)c2ccc(F)cc2)[C@@H](CO)O1)NCc1ccncn1

These rows are one share of the data, so the mix of outcomes need not match the whole.
